# Source: PubChem BioAssay
# CHOP UPR activ: apoptotic UPR (CHOP) activation. CHO-CHOP luciferase reporter, luminescence; percent of tunicamycin response over DMSO baseline. activation, % at 10 µM. 330,000 tested, 0.34% active;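 active = at 10 µM dose, activation of 40% or more, normalized to positive control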;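 note: 100% = tunicamycin at 10 µg/mL and 0% = DMSO alone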
#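 Assay system: CHO-CHOP cells, stable luciferase reporter of PERK-eIF2a-CHOP signalling / Buffer or medium: F12 plus 10% serum / Compound dosing: one dose, 10 µM in 0.5% DMSO / Times: 6 h compound treatment, 37 °C / Technique: luciferase luminescence / Read-out: % reporter activation, DMSO baseline versus tunicamycin full activation / Benchmarks: tunicamycin and DMSO controls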
# XBP1 UPR activ: adaptive UPR (XBP1) activation | CHO-XBP1 luciferase reporter, IRE1-XBP1 UPR activation, luminescence; percent of tunicamycin response, DMSO as zero | activation, % at 20 µM | 330,000 tested, 0.33% active;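 active = versus positive control, 20 µM dose yields 30% or more activation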;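 note: 100% = tunicamycin at 10 µg/mL and 0% = DMSO only wells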
#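 Test system: CHO-XBP1 luciferase reporter cells | Buffer or medium: Serum-containing F12 medium, 10% FBS | Schedule: 6 h compound exposure at 37 °C, 5% CO2 | Detection: Steady-Glo luciferase glow luminescence, 10 min after reagent addition | Read-out basis: Activation, % of tunicamycin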
# Active calls of the source: *; & = joins results of further samples.
SMILES,CHOP UPR activ,XBP1 UPR activ
O=C(N/N=C/c1ccc([N+](=O)[O-])s1)c1cccnc1,-3.2,0
CCN(CC)CC(=O)Nc1c(C)cc(C)cc1C,-1.6,-2
Cc1nc2ccccc2c(-c2ccccc2)c1CC(=O)O,2.4,-1
CN(C)CCOC(c1ccccc1)c1ccccc1 (tested in a mixture with another compound),0.4,-9
O=C(O)c1cccnc1SCCc1ccccc1,-2.3,-3
C[N+]1(C)CC[C@H](OC(=O)[C@@](O)(c2ccccc2)C2CCCC2)C1,-2.9,-6
O=C(O)c1cc(S(=O)(=O)N2CC=C(c3ccccc3)CC2)ccc1O,-1.1,-1
CCN1CCN(C(=O)c2ccc(NS(=O)(=O)c3ccccc3)cc2)CC1,-2.1,-2
CN1[C@@H]2CC(OC(=O)[C@H](CO)c3ccccc3)C[C@H]1[C@@H]1O[C@@H]12 (stereo not given in full),0.6&-0.3,0&-5
COc1ccc(/C=C/C(=O)O)cc1OC,1.0,1
Oc1cc2c(c(Cl)c1O)CCNCC2c1ccccc1 (stereo not given),2.7,-1
O=C(c1ccccc1)c1ccccc1,1.3,-2

# Single records (already shown).
# CN1[C@@H]2CC(OC(=O)[C@H](CO)c3ccccc3)C[C@H]1[C@@H]1O[C@@H]12 (stereo not given in full) is entered as CHOP UPR activ: 0.6&-0.3; XBP1 UPR activ: 0&-5
# Oc1cc2c(c(Cl)c1O)CCNCC2c1ccccc1 (stereo not given) is entered as CHOP UPR activ: 2.7; XBP1 UPR activ: -1
# COc1ccc(/C=C/C(=O)O)cc1OC is entered as CHOP UPR activ: 1.0; XBP1 UPR activ: 1

# Rewritten bar-delimited: 3 of the compounds above.
molecule | CHOP UPR activ | XBP1 UPR activ
O=C(O)c1cccnc1SCCc1ccccc1 | -2.3 | -3
C[N+]1(C)CC[C@H](OC(=O)[C@@](O)(c2ccccc2)C2CCCC2)C1 | -2.9 | -6
O=C(O)c1cc(S(=O)(=O)N2CC=C(c3ccccc3)CC2)ccc1O | -1.1 | -1

# These rows are one share of the data, and most or all hits are left out here.
